Source: PubChem BioAssay (several laboratories)
Mtb betalactam = beta-lactam sensitization of Mtb H37Rv. AID 434955. M. tuberculosis H37Rv growth with meropenem, percent inhibition; hits of this screen are not shown here. inhibition, % at 25 µM. 330,000 tested, 0.27% active;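 active means about 74% or more and at least 40 points above the plate without the antibiotic, then above 30% in a dose series; inconclusive means first-round hits that could not be retested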;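 further: growth measured after seven days incubation then overnight dye step; 0% = bacteria only wells and 100% = bacteria with antibiotic; twin plates without the antibiotic show which effects depend on it; some results filed as inactive read as strong as hits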
RecA splice inh = blocks M. tuberculosis RecA intein splicing | cell-free RecA intein splicing, fluorescence | 290,000 tested, 0.75% active | AID 2221 | inhibition, %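 (about 9 µM by stock and volumes)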 | P9WHJ3; in the data active means inhibition above about 30%; inconclusive means no clear call, values can overlap the other calls;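 further: 0% = vehicle wells and 100% = reference inhibitor control wells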
Target sequence (P9WHJ3 whole entry, looked up, canonical isoform): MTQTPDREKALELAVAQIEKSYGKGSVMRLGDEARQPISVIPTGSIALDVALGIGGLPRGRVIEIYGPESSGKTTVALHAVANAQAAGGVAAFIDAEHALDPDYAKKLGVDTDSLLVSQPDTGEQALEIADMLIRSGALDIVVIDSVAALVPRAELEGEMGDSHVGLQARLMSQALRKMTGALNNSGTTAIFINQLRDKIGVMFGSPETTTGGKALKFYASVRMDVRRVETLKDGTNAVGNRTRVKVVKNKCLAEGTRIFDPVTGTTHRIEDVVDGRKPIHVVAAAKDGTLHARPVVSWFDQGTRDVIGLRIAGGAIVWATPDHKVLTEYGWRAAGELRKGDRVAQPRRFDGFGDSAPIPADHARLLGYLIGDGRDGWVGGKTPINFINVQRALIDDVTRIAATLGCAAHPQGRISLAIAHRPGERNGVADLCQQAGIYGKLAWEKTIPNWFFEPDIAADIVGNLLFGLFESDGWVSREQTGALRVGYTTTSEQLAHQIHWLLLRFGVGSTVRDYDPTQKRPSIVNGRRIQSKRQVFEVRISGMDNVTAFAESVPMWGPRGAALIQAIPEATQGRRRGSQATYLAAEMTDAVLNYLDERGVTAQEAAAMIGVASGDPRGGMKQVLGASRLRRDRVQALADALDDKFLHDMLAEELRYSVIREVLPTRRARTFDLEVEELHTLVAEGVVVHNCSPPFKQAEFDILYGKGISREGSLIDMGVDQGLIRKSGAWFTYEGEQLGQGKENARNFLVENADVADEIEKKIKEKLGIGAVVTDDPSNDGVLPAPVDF
Arbovirus inh = arbovirus infection inhibition. arbovirus infection cell-based antiviral screen. AID 1251. inhibition, % at 10 µM. 200,000 tested, 0.37% active;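 active means inhibition from about 30%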;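 further: bluetongue infection of BSR cells; cell survival read as ATP light after 72 h; 0% = infected wells without compound and 100% = uninfected wells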
YopH PTP inh = inhibitors of Yersinia enterocolitica YopH tyrosine phosphatase; fluorescence Ex485/Em525; inhibition, %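 (about 10 µM by stock and volumes)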; 140,000 tested, 0.16% active; AID 898;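 active means inhibition of 50% or more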;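 further: controls were vehicle for no effect and minimum signal wells for full effect; inactives centre near -20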
Mtb growth = M. tuberculosis H37Rv growth inhibitors, H37Rv strain (AID 1626). M. tuberculosis H37Rv growth inhibition; higher % means a stronger effect. inhibition, % at 10 µM; hits with a dose series show IC50 in µM. 220,000 tested, 0.95% active;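 active means confirmed in a dose series; inconclusive means inhibition above 80% but not taken into the dose series; inactive means below 80% or under 30% at every dose of the series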;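 further: bacteria incubated seven days before Alamar blue readout; 0% = bacteria only wells and 100% = bacteria with antibiotic wells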
Arbovirus inh repeat = also measured in Arbovirus inh; calls as there; inhibition, %; measured here: 10K subset replicate screen; many hits read low in the repeat;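 first of two repeat runs on a subset; 0% = infected and 100% = uninfected wells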
Active calls of the source: *; ? = inconclusive; nt = no result given; & = joins results of further samples. Only part of the results is shown; count on the stated rates, not on these rows.

A first look:
SMILES | Mtb betalactam | RecA splice inh | Arbovirus inh | YopH PTP inh | Mtb growth | others
CN(C)S(=O)(=O)N1CCN(CC(O)COc2ccc3cc(Br)ccc3c2)CC1 (centres undefined) | 77 | 3.3 | -22 | -10 | 65%
c1ccc(CCN2CCN=C2Nc2ccccc2)cc1 | -14 | -1.3 | nt | nt | nt

The listing, from the first entry:
SMILES | Mtb betalactam | RecA splice inh | Arbovirus inh | YopH PTP inh | Mtb growth | others
CN(C)S(=O)(=O)N1CCN(CC(O)COc2ccc3cc(Br)ccc3c2)CC1 (centres undefined) | 77 | 3.3 | -22 | -10 | 65%
c1ccc(CCN2CCN=C2Nc2ccccc2)cc1 | -14 | -1.3 | nt | nt | nt
COC(=O)c1c(NC(=O)c2nc3ccccc3s2)sc2c1CC(C)(C)NC2(C)C | 69 | -8.9 | -14 | nt | nt
CCOc1ccc2c(c1)n([O-])c1c([n+]2=O)CCCC1 | nt | -2.9 | -8 | -33 | 1%
CCCCNC(=O)C(=O)N/N=C/c1ccc(OCC(=O)Nc2cccc(OC)c2)c(OC)c1 | 20 | -2.0 | -6 | -16 | 33%
Cc1c(NC(=O)COC(=O)c2ccccc2Cl)c(=O)n(-c2ccccc2)n1C | -7 | 0.1 | 0 | nt | -8%
CCOC(=O)C1CCN(S(=O)(=O)c2ccc(C)cc2)CC1 | -1 | 1.2 | 6 | -13 | -12%
O=C1CC(c2ccc3c(c2)OCO3)Sc2nc3ccccc3n21 (centres undefined) | -2 | -6.8 | 4 | -27 | -3%
COC(=O)C1(C(F)(F)F)C2C=CC(C2)N1S(=O)(=O)c1ccc(C)cc1 (centres undefined) | -8 | 2.9 | nt | nt | nt
O=C(c1cn(-c2ccccc2)nc1-c1cccs1)N(CCO)Cc1ccccc1 | 0 | 10 | -23 | -11 | -6%
O=c1[nH]c(SCc2ccccc2[N+](=O)[O-])nc2nc[nH]c12 | 1 | 0.9 | nt | nt | 1%
C/C(=N/NC(=O)Cc1ccccc1)c1ccc(C)s1 | 2 | -1.3 | -3 | -21 | 4%
CC(=O)N1CCN(c2ccccc2NC(=O)c2ccc(Br)o2)CC1 | -2 | 0.9 | nt | nt | nt
CC1SC(=Nc2ccccc2)N(S(=O)(=O)c2ccccc2)C1=O (centres undefined) | 42 | -1.1 | -3 | -22 | -6%
CSc1nc(N2CCCC2)c2c(c1C#N)CC(C)(C)OC2 | 2 | 1.9 | 8 | 13 | -2%
CCCCS(=O)CC(CS(=O)CCCC)OC(=O)c1ccccc1 (centres undefined) | 3 | -3.6 | 2 | -43 | 4% | Arbovirus inh repeat=3
CNC(=O)O/N=C(\N)Cc1csc2ccccc12 | 4 | 0.4 | nt | nt | -5%
CCN(CC(=O)NCc1ccc(F)cc1)C(=O)c1oc2ccccc2c1C | 0 | 2.7 | nt | nt | nt
Cc1c(C(=O)O)oc2c1C(O)CC(C)(C)C2 (centres undefined) | 2&-9 | 1.9&-2.3 | -3&2 | 22&3 | -21%&-11%
CCOC(=O)c1ccccc1NC(=O)COC(=O)CCNS(=O)(=O)c1ccc(C)c(C)c1 | 2 | 0.1 | nt | nt | nt

Continued, starting with the last 4 of the part before.
SMILES | Mtb betalactam | RecA splice inh | Arbovirus inh | YopH PTP inh | Mtb growth | others
CNC(=O)O/N=C(\N)Cc1csc2ccccc12 | 4 | 0.4 | nt | nt | -5%
CCN(CC(=O)NCc1ccc(F)cc1)C(=O)c1oc2ccccc2c1C | 0 | 2.7 | nt | nt | nt
Cc1c(C(=O)O)oc2c1C(O)CC(C)(C)C2 (centres undefined) | 2&-9 | 1.9&-2.3 | -3&2 | 22&3 | -21%&-11%
CCOC(=O)c1ccccc1NC(=O)COC(=O)CCNS(=O)(=O)c1ccc(C)c(C)c1 | 2 | 0.1 | nt | nt | nt
O=c1[nH]c(SCc2n[nH]c(=S)n2-c2ccccc2)nc2ccccc12 | -9 | -0.5 | -3 | -9 | -3%
O=C(c1ccccc1)c1ccc(OCCO)cc1 | -1 | 7.3 | -1 | nt | -1%
CCn1cc(C(=O)NCCCN(CC(C)C)CC(C)C)c(=O)c2cc(S(=O)(=O)N3CCOCC3)ccc21 | 8 | -5.0 | nt | nt | nt
C(=N\Nc1nc2ccccc2[nH]1)/C1CCCCC1 | -1 | -2.4 | -31 | nt | 3%
CC1CCC(NC(=O)CN2C(=O)C3CCCN3c3ncc(Cl)cc32)CC1 (centres undefined) | nt | -5.8 | 4 | 4 | -12%
Cc1c(C(=O)NCCCN2CCCCC2)oc2ccc3c(c12)C(O)CC1(CCCCC1)O3 (centres undefined) | 5 | -5.2 | nt | nt | nt
COc1ccc2c(c1)c(C(=O)CN1CCN(c3ccccc3)CC1)c(C)n2C | -5 | 2.9 | nt | nt | -5%
O=C1c2[nH]nc(-c3ccccc3O)c2C(c2cccc(Cl)c2)N1Cc1ccco1 (centres undefined) | ? | 34* | -48 | -15 | -1%
O=C(N/C(=C\c1ccccc1)C(=O)N1CCCCC1)c1ccco1 | -2 | -0.4 | nt | nt | nt
COC(=O)CCC(=O)OC1(C)C(=O)C2=CN(Cc3ccco3)C(c3ccc(OC)cc3)=CC2=C(Br)C1=O (centres undefined) | 4 | -14 | nt | nt | 2%
CCCCOC(=O)Cn1c2ccc(OC)cc2c2nc3ccccc3nc21 | 3 | 0.2 | -30 | -14 | 0%
CC1CN(S(=O)(=O)c2cn(C)c(=O)n(C)c2=O)CC(C)O1 (centres undefined) | 7 | -4.1 | 3 | -40 | -2%
CCCCN(C(=O)c1ccco1)C1CCS(=O)(=O)C1 (centres undefined) | -9 | 0.9 | nt | nt | nt
O=C(c1ccccc1Cl)N1CCCC(c2nc3c(nnn3Cc3ccccc3)c(=O)[nH]2)C1 (centres undefined) | -10 | 0.8 | 18 | -38 | 3%
O=C(CCCOc1ccc(Cl)cc1Cl)NCCc1nnc2ccccn12 | -2 | 1.6 | nt | nt | nt
CCOC(=O)c1cc(C#N)c(N2CCN(c3ccc(OC)cc3)CC2)[nH]c1=O | 54 | -2.4 | 10 | nt | -8%
CCn1cc(C2=NC(CC(C)C)CO2)c2ccccc21 (centres undefined) | -2 | 3.4 | nt | nt | -3%
CCN(CC)/C(=N/S(=O)(=O)c1ccc(C)cc1)c1ccccc1 | -1 | 1.8 | -3 | -15 | -2%
CC(C)=CCN1CCN(Cc2cc(CC(C)C)n[nH]2)CC1CCO (centres undefined) | 3 | -4.6 | nt | nt | 3%
Cc1nn(Cc2ccccc2Cl)c(C)c1NC(=O)c1noc(C(C)C)c1[N+](=O)[O-] | 3 | 7.9 | nt | nt | nt

A draw from above in order of length of the SMILES, lowest first.
SMILES | Mtb betalactam | RecA splice inh | Arbovirus inh | YopH PTP inh | Mtb growth | others
O=C(c1ccccc1)c1ccc(OCCO)cc1 | -1 | 7.3 | -1 | nt | -1%
O=C(CCCOc1ccc(Cl)cc1Cl)NCCc1nnc2ccccn12 | -2 | 1.6 | nt | nt | nt
O=C(N/C(=C\c1ccccc1)C(=O)N1CCCCC1)c1ccco1 | -2 | -0.4 | nt | nt | nt
CCN(CC)/C(=N/S(=O)(=O)c1ccc(C)cc1)c1ccccc1 | -1 | 1.8 | -3 | -15 | -2%
CC1CCC(NC(=O)CN2C(=O)C3CCCN3c3ncc(Cl)cc32)CC1 (centres undefined) | nt | -5.8 | 4 | 4 | -12%
CCOC(=O)c1cc(C#N)c(N2CCN(c3ccc(OC)cc3)CC2)[nH]c1=O | 54 | -2.4 | 10 | nt | -8%
O=C1c2[nH]nc(-c3ccccc3O)c2C(c2cccc(Cl)c2)N1Cc1ccco1 (centres undefined) | ? | 34* | -48 | -15 | -1%

(further entries)
SMILES | Mtb betalactam | RecA splice inh | Arbovirus inh | YopH PTP inh | Mtb growth | others
Cc1ccc2c(c1)-c1c(cnn1CC(=O)N(CCC#N)c1ccccc1)CO2 | -6 | 0.3 | 7 | -55 | -3%
O=C(NCCC(=O)N1CCN(c2ccccc2O)CC1)c1ccc(Cl)cc1 | -2 | 1.7 | nt | nt | nt
O=C(NNC(=O)C12CC3CC(CC(O)(C3)C1)C2)c1csc(N2CCOCC2)n1 | -13 | -1.2 | nt | nt | nt
COc1cc(NC(=S)Nc2cccc(Cl)c2Cl)c(OC)cc1Cl | -11 | -1.9 | 2 | -37 | 1%
COc1cc(OC)cc(C(=O)NC(=S)Nc2ccc(N3CCCC3)cc2)c1 | -6 | -0.2 | 18 | -9 | ?
COc1ccc(C(N)CCc2ccc(C)o2)cc1 (centres undefined) | -12 | 0.6 | -4 | -47 | nt
CCOC(=O)c1c(S(=O)(=O)N2CCCCCC2)c(C)n(C)c1C | 4 | -1.3 | nt | nt | nt
O=C(Nc1ccc(Cl)cn1)C1CCCN1S(=O)(=O)c1cccc2ccccc12 (centres undefined) | -5 | 6.6 | 19 | -12 | -7%
CCCN(CCC)C(=O)c1ccc2c(c1)N(Cc1ccccc1)C(=O)CS2=O (centres undefined) | 0 | 3.2 | 0 | -40 | -2% | Arbovirus inh repeat=1
C#CCOCCOCCOCCNc1nc(N2CCN(C(=O)[C@H](Cc3cc4ccccc4[nH]3)n3cc(C(N)CC(C)C)nn3)CC2)nc(N2CCN(C(=O)[C@H](CCC(=O)O)n3cc(C(N)[C@H](C)CC)nn3)CC2)n1 (some centres undefined) | -19 | -1.6 | 3 | nt | -7%
CN(C)C(=S)Nc1ccc(N2CCOCC2)cc1 | -10 | nt | nt | nt | 0%
Cc1nc2ccccn2c1C(=O)N=Nc1c(O)n(CCC(C)C)c2ccccc12 | 27 | -1.0 | -33 | -24 | 6%
CCn1c(C)cc2c(c1=O)C(c1ccc3c(c1)OCO3)C(C#N)=C(N)O2 (centres undefined) | nt | -0.2 | -1 | -9 | -4%
CCCCN(c1ccccc1)S(=O)(=O)c1ccc2c(c1)CCN2C(=O)CCC(=O)O | -5 | 2.7 | -6 | 14 | -1%
CCc1ccc(N(CC)C(=O)Cc2c(C(=O)O)n(C)c3ccccc23)cc1 | 6 | -0.7 | nt | nt | nt
O=C(NCC1CCCO1)c1cc2ccccc2[nH]1 (centres undefined) | -11 | -1.9 | -1 | -27 | -3%
CCOc1cc(N2CCOCC2)c(OCC)cc1NC(=O)c1ccccc1 | -5 | 0.0 | 0 | nt | 3%
COc1ccccc1CNC(=O)Cn1cccc1C(=O)c1ccccc1C | 3 | -0.5 | nt | nt | nt
Cc1cc[n+](CC(=O)c2cccc([N+](=O)[O-])c2)c2ccccc12 | 4 | -2.7 | nt | nt | nt
Brc1ccc(-c2cnnc(N3CCCC3)n2)cc1 | 99 | 5.1 | -3 | -28 | 10%
Cn1c(=O)c2cc(S(=O)(=O)NCCC(=O)NC3CCCCCC3)ccc2n(C)c1=O | -9 | 2.0 | -12 | -21 | -2%
O=[N+]([O-])c1ccc(N2CCN(S(=O)(=O)c3ccc4ccccc4c3)CC2)cc1NCc1ccco1 | -7 | -0.5 | 19 | -6 | 1%
CCc1ccc(/C=N/NC(=O)c2nnn(-c3nonc3N)c2C(C)C)cc1 | -2 | 0.8 | nt | nt | nt
COc1cc(/C=N/NC(=O)CCC(=O)NCc2ccccc2)cc(OC)c1OC | 2 | 2.2 | 3 | -21 | 0%
COC(=O)c1cc(S(=O)(=O)NCc2ccccc2Cl)c[nH]1 | -2 | -0.1 | nt | nt | nt
C=CCn1c(-c2cccc([N+](=O)[O-])c2)n[nH]c1=S | -1 | -1.4 | 0 | nt | -3%
CCOc1cc(C2C3=C(CC(C)(C)CC3=O)N(CCOC)C3=C2C(=O)CC(C)(C)C3)ccc1O | 3 | -4.9 | nt | nt | nt
COc1ccc(N2C(=O)[C@@H]3[C@H](C2=O)[C@H](C(=O)c2ccc(OC(C)=O)cc2)N2N=CC=C[C@@H]32)cc1 | 5 | 6.0 | 0 | -6 | -4%
COc1cc(N=Cc2c(O)c3ccccc3oc2=O)c(OC)cc1Cl | 94 | 0.8 | nt | nt | nt
O=C(NCc1ccccn1)c1ccc(Cl)c(S(=O)(=O)N2CCCCCC2)c1 | -6 | 1.7 | nt | nt | nt
Cc1ccccc1C1=Nn2c(nnc2-c2ccco2)SC1 | 13 | 1.2 | nt | nt | 1%
CC(=O)c1csc(-c2ccccc2)n1 | -4 | -2.2 | -3 | nt | -5%
O=C(CCC(=O)Nc1ccccc1)N/N=C/c1ccncc1 | 1 | -1.2 | nt | nt | nt
